2A Renilla: lowers the Renilla signal of an FMDV 2A StopGo reporter; AID 1745857; HEK cells with a luciferase reporter of 2A StopGo recoding; hit rate 0.32% among 120,000; Potency, µM (titrated, usually from 57.5 µM), for the others: at the highest dose signal change, negative = less light; active means well fitted falling curve with a large enough effect; inconclusive means small, poorly fitted or top-dose-only effect; inactive means no such curve, though single readings can be large or run the other way; also: nearly all actives have a fitted effect of over 55% in size; overnight with compound
2A firefly: FMDV 2A StopGo reporter, firefly signal | HEK cells with a luciferase reporter of 2A StopGo recoding | Potency, µM (highest dose often 57.5 µM), inactives show at the highest dose signal change, negative = less light | hit rate 0.23% among 120,000; active = well fitted falling curve with a large enough effect; inconclusive = small, poorly fitted or top-dose-only effect; inactive = no such curve, though single readings can be large or run the other way; also: nearly all actives have a fitted effect of over 60% in size; overnight with compound
* marks the source's active call; other numbers are inactive results; & = joins results of further samples; [ ] = remark or other dose. % is scaled to controls: 0 for no effect and ±100 for the full control effect; potency is read from the fitted curve at half-maximal effect. Some of the compounds tested. The share of hits here may be higher or lower than overall.

Screening O=C(COC(=O)Cc1ccc(Cl)c(Cl)c1)NCc1ccc(F)cc1 returned 2A Renilla -9% and 2A firefly -3%.
`c1ccc(NC2(c3nnnn3-c3ccccc3)CCCC2)cc1` gave 2A Renilla 46%[activator] and 2A firefly -3%.
Cc1ccc(NC(=O)CSc2ccc3nnc(CCNS(=O)(=O)c4ccccc4)n3n2)cc1Cl was read as 2A Renilla -1% and 2A firefly -17%.
`CC(C)C(=O)Nc1ccc(Cl)cn1` gave 2A Renilla 5% and 2A firefly 13%.
Screening CCOc1ccc(C(C)=O)cc1CN(C)CC(=O)Nc1ccccc1Cl returned 2A Renilla 24% and 2A firefly 1%.
`O=C(c1cc(=O)c2cc(Cl)cc(Cl)c2o1)N1CCN(Cc2ccccc2)CC1` gave 2A Renilla -11% and 2A firefly -1%.
Screening O=C(N/N=C1/CC2C=CCC12)c1ccc(Cl)cc1 (stereo unspecified) returned 2A Renilla 9% and 2A firefly 157%[activator].
N#Cc1ccc(COC(=O)c2ccc(N3CCOCC3)nc2)c(F)c1 was read as 2A Renilla -3%[1.06 µM] and 2A firefly 13%.
CC(=O)N1CCC(C(=O)Nc2cc(F)ccc2F)CC1 was read as 2A Renilla -3% and 2A firefly 2%.
`O=C(CCNS(=O)(=O)c1ccc2c(c1)CCN2C(=O)C1CC1)Nc1ccc(F)c(Cl)c1` gave 2A Renilla 12% and 2A firefly -25%.
Cc1cccc(N2CCN(C(=O)CCCCn3c(=O)[nH]c4ccsc4c3=O)CC2)c1C was read as 2A Renilla -28% and 2A firefly 14µM*.
For CCOc1ccc(C(=O)NCC(c2cccs2)S(=O)(=O)c2ccccc2)cc1 (stereo unspecified) the results were 2A Renilla 38%&54% and 2A firefly -5%&-4%.
CSc1ncc(C(=O)Nc2ccc(C)c(Cl)c2)c(-c2ccccc2)n1 was read as 2A Renilla 14% and 2A firefly 9%.
COc1cc(NC(=O)N2CCC3(CC2)Nc2cc(F)ccc2-n2cccc23)cc(OC)c1OC was read as 2A Renilla inconclusive and 2A firefly inconclusive.
Screening CCSC1=N/C(=C\c2ccc(OC)c(C)c2)C(=O)S1 returned 2A Renilla 12% and 2A firefly 0%.
CN1CCN(C(C(=O)O)c2c[nH]c3cc(OCc4ccccc4)ccc23)CC1 (stereo unspecified) was read as 2A Renilla -11% and 2A firefly -18%.
For Cc1ccc(Cl)cc1NC(=O)Cn1c(=O)c(CNc2ccccc2)cc2cc3c(cc21)OCCO3 the results were 2A Renilla -3% and 2A firefly 127%[activator].
Screening Cc1ccc(-c2nonc2NC(=O)COc2cccc(C)c2)cc1 returned 2A Renilla 11% and 2A firefly 25%.
CCN(CCCNC(=O)c1nn(-c2ccc(C)cc2)c(=O)c2c1c1ccccc1n2C)c1cccc(C)c1 was read as 2A Renilla -11% and 2A firefly -13%.
`CCCCOc1nnc(-c2ccc(OCC)cc2)c2ccccc12` gave 2A Renilla 15% and 2A firefly 3%.

Taken from the results shown, 10 compounds:
Screening CCOc1ccc(C(C)=O)cc1CN(C)CC(=O)Nc1ccccc1Cl returned 2A Renilla 24% and 2A firefly 1%.
`O=C(c1cc(=O)c2cc(Cl)cc(Cl)c2o1)N1CCN(Cc2ccccc2)CC1` gave 2A Renilla -11% and 2A firefly -1%.
Screening O=C(N/N=C1/CC2C=CCC12)c1ccc(Cl)cc1 (stereo unspecified) returned 2A Renilla 9% and 2A firefly 157%[activator].
N#Cc1ccc(COC(=O)c2ccc(N3CCOCC3)nc2)c(F)c1 was read as 2A Renilla -3%[1.06 µM] and 2A firefly 13%.
CC(=O)N1CCC(C(=O)Nc2cc(F)ccc2F)CC1 was read as 2A Renilla -3% and 2A firefly 2%.
`O=C(CCNS(=O)(=O)c1ccc2c(c1)CCN2C(=O)C1CC1)Nc1ccc(F)c(Cl)c1` gave 2A Renilla 12% and 2A firefly -25%.
Cc1cccc(N2CCN(C(=O)CCCCn3c(=O)[nH]c4ccsc4c3=O)CC2)c1C was read as 2A Renilla -28% and 2A firefly 14µM*.
For CCOc1ccc(C(=O)NCC(c2cccs2)S(=O)(=O)c2ccccc2)cc1 (stereo unspecified) the results were 2A Renilla 38%&54% and 2A firefly -5%&-4%.
CSc1ncc(C(=O)Nc2ccc(C)c(Cl)c2)c(-c2ccccc2)n1 was read as 2A Renilla 14% and 2A firefly 9%.
COc1cc(NC(=O)N2CCC3(CC2)Nc2cc(F)ccc2-n2cccc23)cc(OC)c1OC was read as 2A Renilla inconclusive and 2A firefly inconclusive.

Continuation.
Cc1ccc(S(=O)(=O)N2CCN(c3ccc([N+](=O)[O-])c4cccnc34)CC2)cc1 was read as 2A Renilla -4% and 2A firefly -3%.
Screening COc1ccc(CNC(=O)Cc2c(C)c3ccc(OC)c(OC)c3oc2=O)cc1OC returned 2A Renilla 0% and 2A firefly -2%.
Cc1cc(OCC(=O)OCC(=O)c2ccc(-c3ccccc3)cc2)ccc1Cl was read as 2A Renilla -2% and 2A firefly 0%.
`Cc1ccc(-c2nc(CS(=O)(=O)CC(=O)N3CCN(c4ccccc4)CC3)c(C)o2)cc1` gave 2A Renilla inconclusive and 2A firefly inconclusive.
`COc1ccc(Oc2c(C)oc3cc(OCC(=O)c4ccc(OC)cc4)ccc3c2=O)cc1` gave 2A Renilla 5% and 2A firefly -8%.
Cc1cc2oc(=O)cc(CN3CCOCC3)c2cc1O was read as 2A Renilla -6%&-8% and 2A firefly 14%&9%.
Cc1ccc2nsnc2c1NC(=O)COc1ccc(C(C)(C)C)cc1 was read as 2A Renilla -7% and 2A firefly -15%.
Screening CCCn1c(SCC(=O)Nc2nncs2)nnc1C1CC1 returned 2A Renilla -14% and 2A firefly -8%.
For COc1ccc(COCC(O)CN(C)Cc2ccc(OC)c(OC)c2OC)cc1 (stereo unspecified) the results were 2A Renilla -4% and 2A firefly 5%.
For O=c1c2cc3c(cc2nc2sc(Nc4ccc(F)cc4F)nn12)OCO3 the results were 2A Renilla -8% and 2A firefly 8%.
`CCc1cc(=O)[nH]c(SCc2nc(-c3ccc(C(F)(F)F)cc3)no2)n1` gave 2A Renilla -22% and 2A firefly -21%.
For CC(C)c1ccc(CNC(=O)c2cccc(C(=O)NCc3ccc(C(C)C)cc3)c2)cc1 the results were 2A Renilla 8% and 2A firefly 14%.
For Cc1cccc(-c2nc(CSCC(=O)N3CCN(c4cccc(C)c4C)CC3)c(C)o2)c1 the results were 2A Renilla 0% and 2A firefly -3%.
`CCNC(=O)CN(CC)C(=O)c1cc2c(OC)cc(OC)c(OC)c2[nH]1` gave 2A Renilla 17% and 2A firefly 24%.
CCC(=O)N1CCCc2cc(S(=O)(=O)Nc3ccc(C)c(C)c3)ccc21 was read as 2A Renilla 98%[activator] and 2A firefly inconclusive.
COc1ccccc1CNC(=O)CN(c1ccccc1OC)S(C)(=O)=O was read as 2A Renilla 10% and 2A firefly -1%.
Screening Cc1c(CCNC(=O)c2ccc3c(c2)OCO3)sc2nc(-c3ccc(F)cc3)nn12 returned 2A Renilla inconclusive and 2A firefly inconclusive.
`O=C(Nc1ccc2oc(C3CC3)nc2c1)c1cc[n+]([O-])cc1` gave 2A Renilla 1% and 2A firefly 16%.
For Cn1c(C(=O)NCCc2ccccc2)cc2c(=O)n3ccccc3nc21 the results were 2A Renilla 1% and 2A firefly 63%[activator].
For Cc1ccc(N2CCN(C(=O)CCNS(=O)(=O)c3ccc4[nH]c(=O)ccc4c3)CC2)c(C)c1 the results were 2A Renilla inconclusive and 2A firefly inconclusive.
Screening Cc1cccc(CN2CCN(c3nc4c(c(=O)[nH]c(=O)n4C)n3Cc3cccc(C)c3)CC2)c1 returned 2A Renilla -14% and 2A firefly -12%.
Screening Cc1cccc(C)c1OCC(=O)Nc1c(C(=O)c2ccccc2)oc2ccccc12 returned 2A Renilla 0% and 2A firefly -7%.
`CCOC(=O)Cn1c(=N)n(Cc2ccc(C(C)(C)C)cc2)c2ccccc21` gave 2A Renilla -14% and 2A firefly -13%.
Screening CCOc1cc(C(=O)OCc2cc(=O)n3nc(CC)sc3n2)cc(OCC)c1OCC returned 2A Renilla -9% and 2A firefly -17%.
`Cc1cc(C)c(Cn2c3ccccc3c3cnn(CC(=O)NCCC4=CCCCC4)c(=O)c32)c(C)c1` gave 2A Renilla 7% and 2A firefly 7%.
CCn1cnc2c1c(=O)n(CC(=O)Nc1ccccc1N1CCCC1)c(=O)n2Cc1ccccc1 was read as 2A Renilla 6% and 2A firefly 4%.
Screening CC(=O)c1cc(C)ccc1OC(=O)c1ccc(Cl)cc1 returned 2A Renilla 2% and 2A firefly 6%.
For O=C(O)CCc1nnc2cnc3ccccc3n12 the results were 2A Renilla -6% and 2A firefly -9%.
O=C(CCc1ncc(-c2ccccc2F)o1)Nc1ccc(Cl)cc1F was read as 2A Renilla -11% and 2A firefly 3%.
`COc1cc(OC)cc(C(=O)OCc2nc(-c3ccc(OC(F)(F)F)cc3)no2)c1` gave 2A Renilla -2% and 2A firefly 77%[activator].
Screening C=CCc1ccc(O)c(OC)c1 returned 2A Renilla -2% and 2A firefly -10%.
`COc1ccc(CCNC(=O)C(=O)NCC(c2ccco2)S(=O)(=O)c2cccs2)cc1` (stereo unspecified) gave 2A Renilla -9% and 2A firefly -14%.
ClC(/C=N/N1CCN(Cc2ccc(Cl)cc2)CC1)=C/c1ccccc1 was read as 2A Renilla 0% and 2A firefly -1%.
For COc1cc2cc(CNc3ccc(C)cc3)c(=O)n(CC(=O)Nc3ccc(F)cc3F)c2cc1OC the results were 2A Renilla 7% and 2A firefly 66%[activator].
For COCC(C)NS(=O)(=O)c1c(C)cc(C)cc1C (stereo unspecified) the results were 2A Renilla 33%[activator] and 2A firefly -8%.
`Cc1ccc(/C=C(/C#N)C(=O)NC2CCCCC2C)s1` (stereo unspecified) gave 2A Renilla 42%[activator] and 2A firefly 81%[activator].
Screening COc1ccc(CNCc2c(C(=O)O)c(C)n(Cc3ccc(Cl)cc3)c2C)c(OC)c1 returned 2A Renilla 54%[activator] and 2A firefly -21%.
For Cc1ccc(O)c(C(CC(=O)NCC2(c3ccccc3)CCCC2)c2ccccc2)c1 (stereo unspecified) the results were 2A Renilla inconclusive and 2A firefly inconclusive.
For Cc1ccccc1Nc1nn2c(=O)c3ccc(C(=O)NCc4ccccc4)cc3nc2s1 the results were 2A Renilla 4% and 2A firefly -1%.
Screening COC(=O)c1ccc(OCc2ccc(C#N)cc2F)c(OC)c1 returned 2A Renilla 21% and 2A firefly 0%.
For Cc1ccc(C)c(CNC(=O)c2cnc3sc(N4CCCC4)nn3c2=O)c1 the results were 2A Renilla -4% and 2A firefly -10%.
`O=C(Nc1cccc(Cl)c1)C1CCN(c2cnc3ccccc3n2)CC1` gave 2A Renilla -1% and 2A firefly 11%.
Screening CCOC(=O)c1sc2nc(C(C)N3CCCCC3)[nH]c(=O)c2c1C (stereo unspecified) returned 2A Renilla 3% and 2A firefly -3%.
Cc1ccc(-c2cc(C(=O)OCC(=O)NCC3CCCO3)c3ccccc3n2)o1 (stereo unspecified) was read as 2A Renilla 1% and 2A firefly 122%[activator].
COc1cccc(NC(=O)N2CCC(N(C)CCC(C)C)CC2)c1 was read as 2A Renilla -7% and 2A firefly 19%.
Screening CCOc1ccc(CN2CCc3nc(Nc4ccc(OC)cc4OC)ncc3C2)cc1 returned 2A Renilla 13% and 2A firefly -9%.
O=C(Nc1ccc(F)cc1F)c1c2c(nc3ccccc13)C(=O)N(C1CCCCC1)C2 was read as 2A Renilla -15% and 2A firefly -21%.
For CC(=O)Nc1ccc(CNC2CCC(C)CC2)cc1 (stereo unspecified) the results were 2A Renilla -10% and 2A firefly 21%.
COc1nc2cc(C)ccc2cc1-c1noc(-c2cccs2)n1 was read as 2A Renilla -13% and 2A firefly 60%[activator].
Cc1cc(C)c(-c2csc(NC(=O)Cn3cnc4c3c(=O)n(C)c(=O)n4C)n2)c(C)c1 was read as 2A Renilla -21% and 2A firefly -2%.
Screening CC(C)Cn1c(=O)c2ccccc2n2c(-c3ccc(Br)cc3)nnc12 returned 2A Renilla 14% and 2A firefly -8%.
N#CCCn1c(SCC(=O)Nc2ccc(-c3ccccc3)cc2)nc2ccccc21 was read as 2A Renilla 13% and 2A firefly 22%.
CCCc1cc2c(CCC)cc(=O)oc2cc1O was read as 2A Renilla 1% and 2A firefly 11%.
Screening CCOc1cc(Br)c(C2C(C#N)=C(N)Oc3cc4c(cc32)OCO4)cc1OCC (stereo unspecified) returned 2A Renilla 40%[activator] and 2A firefly 0%.
`C=Cc1ccc(CN2C(=O)N(c3ccc(C(C)=O)cc3)S(=O)(=O)c3ccccc32)cc1` gave 2A Renilla 0% and 2A firefly -2%.
Screening COC(=O)CC1C(=O)NCCN1S(=O)(=O)c1cc(Cl)ccc1Cl (stereo unspecified) returned 2A Renilla 13% and 2A firefly 7%.
`Cc1oc(-c2ccccc2)nc1CC(=O)Nc1ccc(-c2ccccc2)cc1` gave 2A Renilla 4% and 2A firefly 3%.
CCCCCCCCNC(=O)/C(C#N)=C\C=C\c1ccccc1 was read as 2A Renilla 7% and 2A firefly 0%.
For Cc1ccc(OCCCCn2c(CCNC(=O)C(C)(C)C)nc3ccccc32)cc1 the results were 2A Renilla -7% and 2A firefly -16%.
For O=C(COc1cccc(-n2cnnn2)c1)N1CCN(S(=O)(=O)c2ccccc2F)CC1 the results were 2A Renilla -4% and 2A firefly 1%.
Screening CN1CCC(=C2c3ccccc3CCc3cccnc32)CC1 returned 2A Renilla -8% and 2A firefly -3%.
N#Cc1nc(-c2ccc(S(=O)(=O)N3CCCCCC3)cc2)oc1N1CCOCC1 was read as 2A Renilla 7% and 2A firefly -3%.
For COc1ccccc1-c1nc(C#N)c(N2CCN(C(=O)c3ccccc3)CC2)o1 the results were 2A Renilla -2% and 2A firefly 3%.
Screening CCCOc1ccc(C2=NC(c3ccc(F)cc3)=Nc3ccc(OC)cc3N2)cc1 returned 2A Renilla 34%[activator] and 2A firefly 147%[activator].

Compound activity (PubChem BioAssay)
